TRPV1 PAM: potentiators of human vanilloid receptor 1 (TRPV1); Q8NER1; TRPV1-expressing cells, Fluo-8 calcium influx, capsaicin EC20 potentiation; host cell line not named in the record; control for the full effect not named in the record; potentiation, % at 8.33 µM; 0.02% of 320,000 active; active means potentiation above 80%; inconclusive means 30% to 80%; inactive means below 30%; further: 0% is about no effect
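Fluo-8 calcium influx in TRPV1-expressing cells, kinetic read (ex 480/em 520 nm). Compound added and read 3 min for agonist activity, followed by capsaicin at EC20 final and 2 min further read for enhancement.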
Sfp inh: blocks B. subtilis Sfp PPTase activity; Q9F4F7; Biochemical Sfp PPTase activity, qHTS; Potency, µM, for inactives: max response, negative = inhibition, actives largely listed as inhibitors; 3.5% of 310,000 active; active means well fitted inhibition curve with a large enough effect; inconclusive means small, poorly fitted or top-dose-only effect, or another doubt; inactive means no such curve, though single readings can be large or run the other way;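 further: the enzyme is Sfp with the accession as filed and its product quenches rhodamine fluorescence; potency means the concentration at half of the fitted maximal effect; 0% = enzyme reaction without inhibitor and -100% = no enzyme wells; top concentration of the series not given in the record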
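Step 1, compound plus 15 nM Sfp-PPTase, 15 min, room temperature. Step 2, add rhodamine-CoA (5 uM) and BHQ-2-YbbR (12.5 uM). Step 3, read 525/598 nm fluorescence at 0 and 30 min.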
PINK1 expr mod: changes PINK1 expression; PINK1 immunofluorescence, high-content cytometry, 24 h; Potency, µM (highest dose often 76.6 µM), for inactives: top-dose activation (PINK1 increase), hits mostly activators; 0.2% of 410,000 active; active = well fitted activation curve with a large enough effect; inconclusive = small, poorly fitted or top-dose-only effect; inactive = flat fitted curve, though single readings scatter; cell line not stated here;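 further: potency means the concentration at half of the fitted maximal effect; % of control where 0% means no effect; nearly all actives have a fitted effect of over 65% in size; a mitochondrial uncoupler was the plate control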
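Compound titrations (5 concentrations, 24 h) on a stable cell line; DMSO and CCCP controls. Endpoint: fixed-cell PINK1 immunofluorescence with mitochondrial, cell and nuclear markers, scanned by microplate cytometer.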
TRPML1 ag: agonists of human TRPML1 channel; Q9GZU1; TRPML1-expressing cells, Ca2+ dye fluorescence, FDSS; host cell line not named in the record; reference of the full effect not given here; activation, % (concentration not given with the values); 0.12% of 410,000 active; AID 624414; in the data active = activation above about 50%; inconclusive = about 30% to 50%; inactive = below about 30%; further: 0% is about no effect; the text of the record puts the active cut at 80%
Target sequence (Q9GZU1 whole entry, looked up): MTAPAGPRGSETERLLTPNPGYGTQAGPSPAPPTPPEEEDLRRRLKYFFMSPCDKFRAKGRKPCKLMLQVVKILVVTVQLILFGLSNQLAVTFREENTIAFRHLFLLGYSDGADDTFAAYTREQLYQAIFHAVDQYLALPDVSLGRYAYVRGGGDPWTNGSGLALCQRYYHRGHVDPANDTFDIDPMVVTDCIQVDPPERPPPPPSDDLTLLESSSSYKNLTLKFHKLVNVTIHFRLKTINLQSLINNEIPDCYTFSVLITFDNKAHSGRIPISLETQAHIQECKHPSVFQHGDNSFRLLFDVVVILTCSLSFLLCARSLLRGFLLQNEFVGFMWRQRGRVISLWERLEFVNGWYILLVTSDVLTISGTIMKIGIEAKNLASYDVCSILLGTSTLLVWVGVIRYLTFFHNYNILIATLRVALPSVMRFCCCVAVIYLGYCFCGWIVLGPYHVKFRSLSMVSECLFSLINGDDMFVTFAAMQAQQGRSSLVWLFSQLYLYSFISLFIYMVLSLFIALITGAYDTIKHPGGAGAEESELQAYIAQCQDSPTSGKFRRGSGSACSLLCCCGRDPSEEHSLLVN
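Kinetic FDSS Ca2+ read in Tet-induced TRPML1-DL cells (ABD Ca8 dye plus quencher, 45-90 min RT loading): baseline, then compound, then 110 s agonist window; EC80 agonist 54-4 at 4uM final added afterwards for a 110 s antagonist window.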
Menin-MLL FL inh: menin-MLL binding inhibition, fluorescein peptide | Fluorescence polarization, fluorescein-MLL peptide displacement from menin | FP activity change, % at 61.4 µM | 290,000 tested, under 10 active | AID 1766; inconclusive = falling polarisation curve, or a change in total fluorescence; inactive = total fluorescence flat and polarisation flat or rising; no compound was filed as active; the % refers to the polarisation; negative = inhibition;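 further: % of control where 0% means no effect; inhibitors lower the polarisation; unlabelled MLL peptide was the positive control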
TRPML1 inh: blocks the human TRPML1 channel | Q9GZU1 | AID 624415 | 0.02% of 390,000 active | activity change, negative = inhibition, % (no concentration beside the values) | TRPML1-inducible cells, Ca2+ dye fluorescence, FDSS; stronger effect = lower value; inhibition of EC80 agonist-evoked calcium signal; in the data active means activity change below about -50%; inconclusive means about -30% to -50%; inactive means above about -30%;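 further: stimulus is agonist 54-4 at its EC80 concentration; on the % scale 0 is the no-effect control and ±100 the full control effect; compound concentration not given in the record; the text of the record puts the active cut at -80%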
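Tet-induced TRPML1-DL cells loaded with Ca8 no-wash calcium dye were read kinetically on FDSS. Compound addition was followed by EC80 agonist 54-4 (4 uM final); inhibition was read over 110 s.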
ClpP mod: qHTS Assay for Activators of ClpP. Potency, µM (titrated, usually from 57.5 µM), for the others: at the highest dose activity change, negative = active. purified B. subtilis ClpP, FRET peptide cleavage, 20 min. AID 651965, 2013. ATP-dependent Clp protease proteolytic subunit (Bacillus subtilis (strain 168)), P80244. 1.9% of 340,000 active; active = well fitted falling curve with a large enough effect; inconclusive = small, poorly fitted or top-dose-only effect; inactive = no such curve, though single readings can be large or run the other way; further: potency means the concentration at half of the fitted maximal effect; the source files actives as falling curves though it sought activators and does not explain the sign; nearly all actives have a fitted effect of over 65% in size; many hits overshoot -100%
Target sequence (P80244 whole entry, looked up): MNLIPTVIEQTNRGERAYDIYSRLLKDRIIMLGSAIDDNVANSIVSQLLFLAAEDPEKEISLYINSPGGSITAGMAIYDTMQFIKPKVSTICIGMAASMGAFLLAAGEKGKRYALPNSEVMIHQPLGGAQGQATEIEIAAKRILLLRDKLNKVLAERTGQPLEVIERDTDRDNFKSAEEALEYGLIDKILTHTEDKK
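Purified B. subtilis ClpP, 10 microg/mL final in Tris/HCl pH8 with KCl, BSA, glycerol and Tween-20, cleaved an Abz/nitrotyrosine-quenched decapeptide. Fluorescence (ex 320, em 430) was read at 0 and 20 min at room temperature. Delta was normalized to 5.8 microM ADEP and DMSO/no-enzyme controls.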
* = called active by the depositor; ? = inconclusive; · = no result given; & = joins results of further samples; [ ] = another dose, or the depositor's remark.

SMILES | TRPV1 PAM | Sfp inh | PINK1 expr mod | TRPML1 ag | Menin-MLL FL inh | TRPML1 inh | ClpP mod
CC(C)(C)c1cc(NCc2ccccn2)n2ncc(-c3ccccc3)c2n1 | -1 | 29% | ? | 0.4 | 2.5 | 29 | ·
COCCCNCCOCCOc1ccc(Cl)cc1Br | 4 | 2% | 2.2% | 0.5 | 7.0 | 1 | -0.3%
COc1ccc(C2c3c(oc4ccccc4c3=O)C(=O)N2Cc2ccc3c(c2)OCO3)cc1 (stereo not drawn) | · | · | 0.5% | -0.2 | · | -15 | -1.7%
O=C(CSc1nnc2ccccn12)Nc1ccccc1Cl | · | · | -2.9% | 0.9 | · | 2 | ·
CC(=O)Nc1ccc(S(=O)(=O)NCCSCc2ccc(Cl)cc2Cl)cc1 | 2 | 10% | 0.1% | 1.2 | 1.2 | 9 | -2.9%
Cc1ccc(C(=O)CCC(=O)NC2CCCC(C)C2C)cc1 (stereo not drawn) | -10 | 7% | 4.3% | 2.9 | -1.8 | -13 | -2.4%
COC(=O)c1[nH]c2c(c1C)C(=O)CC(c1ccc(OC)c(OC)c1)C2 (stereo not drawn) | 1 | -7% | 0.8% | · | 1.6 | · | -0.3%
CCn1ncc(Br)c1C(=O)NC(C)c1ccccc1 (stereo not drawn) | ? | 0% | -0.5% | 0.1 | 3.3 | 18 | -0.8%
COc1ccc(CCN(Cc2ccccn2)C(=S)Nc2cccc(C)c2)cc1OC | -3 | -1% | 0.0% | 0.1 | -2.4 | 15 | 0.1%
COc1ccc(CCNC(=O)Nc2cc(F)c(F)cc2Cl)cc1OC | -8 | 8% | 3.9% | -0.4 | -1.6 | -5 | 0.0%
CC(Nc1ccc(Br)cc1)C(=O)N/N=C/c1ccccc1OCc1ccccc1 (stereo not drawn) | 3 | 16% | -0.6% | 1.2 | 2.6 | 12 | 5.0%
COc1ccc(CN2C(=O)CC(Cc3cc(C)cc(C)c3)C2=O)cc1OC (stereo not drawn) | -12 | -8% | 2.0% | 2.8 | 4.1 | -6 | 0.4%
O=C1c2ccccc2-c2ccccc2NC1O (stereo not drawn) | · | · | 1.1% | -0.4 | · | -13 | -2.4%
Cc1ccc2nc(SCC(=O)c3ccc(Cl)s3)[nH]c2c1 | 5 | 7% | 6.4% | 0.2 | 10.0 | -10 | -2.1%
COc1ccc(C)cc1S(=O)(=O)N1CCCC(N2CCN(c3ccccc3)CC2)C1 (stereo not drawn) | · | · | -0.1% | -0.9 | · | 3 | -1.7%
COc1ccc(N2CC(NC(=O)C(=O)c3c(C)[nH]c4ccccc34)CC2=O)cc1 (stereo not drawn) | · | · | -0.2% | 2.0 | · | -15 | 0.4%
CC1CCC(C(C)C)C(OC(=O)COC(=O)c2ccc(=O)[nH]c2)C1 (stereo not drawn) | 0 | 12% | -1.2% | 1.8 | 0.8 | -11 | -2.7%
Cc1c(NC(=O)C(C)OC(=O)CNC(=O)c2ccccc2)c(=O)n(-c2ccccc2)n1C (stereo not drawn) | -17 | 9% | · | 0.1 | 1.6 | 15 | 0.3%
CC12CC3CC(C)(C1)CC(C(O)CN1CCOCC1)(C3)C2 (stereo not drawn) | -23 | 4% | 0.2% | 0.3 | 0.9 | -1 | 1.1%
COC(=O)c1c(C)[nH]c(C(=O)COC(=O)CCNS(=O)(=O)c2cccc(C(F)(F)F)c2)c1C | 0 | · | -0.9% | 2.6 | · | -13 | -0.6%
COC(=O)[C@H](CC(C)C)NCc1cccc(CN[C@@H](CC(C)C)C(=O)OC)c1 | -15 | 5% | 4.4% | -0.8 | 2.7 | 4 | 0.9%
Cc1cccc(N(CC(=O)NC2CCCC2)C(=O)CCC(=O)Nc2cc(C)on2)c1 | -3 | 20% | 1.5% | -0.6 | 6.0 | 20 | -7.8%
Cc1cc(CNC(=O)c2ccc3oc(C(C)C)nc3c2)nn1C | 6 | 8% | 3.2% | -0.2 | 1.2 | -6 | -0.7%
COc1cc2c(NC3CCN(C(C)C)CC3)nc(N3CCCN(C)CC3)nc2cc1OCCOCCN1CCCC1 | · | · | 0.4% | -0.4 | · | · | 4.1%
CC1(C)CC(=O)C2=C(C1)OC(N)=C(C#N)C2Cc1ccccc1 (stereo not drawn) | -4 | 2% | 2.2%[38.3 µM] | 0.7 | 1.7 | 13 | -2.0%
COc1ccc(-c2nc3sc(CCNC(=O)Cc4ccccc4)c(C)n3n2)cc1 | · | · | 1.3% | 0.5 | · | 30 | -7.8%
CCCNC(=O)c1c(N)n(-c2cccc(OC)c2)c2nc3ccccc3nc12 | -14 | 0% | -3.8% | -0.6 | 3.2 | 12 | 20µM*
COC(=O)c1cc(C)ccc1OCc1ccc([N+](=O)[O-])cc1 | 26 | -14% | 6.6% | -0.2 | -0.5 | 0 | -0.1%
COc1cccc(N2C(=O)C3CCCN3C2c2ccc(N(C)C)cc2)c1 (stereo not drawn) | · | 0% | 1.6% | 0.0 | 7.2 | -5 | -0.8%
Cn1c(=O)c2ncn(CC(=O)NC3CCCCCC3)c2n(C)c1=O | 5 | 10% | 0.4% | 1.4 | 1.7 | -13 | -3.5%
CCOC(=S)N/C(=N\S(=O)(=O)c1ccccc1)c1ccccc1 | 0 | 18µM* | -0.1% | 2.3 | 0.7 | 11 | -0.1%
Cc1ccc(SCc2nc(N)nc(Nc3ccccc3C)n2)cc1C | -2 | 8% | 4.6% | 1.5 | -0.2 | 61 | 1.2%
Cc1cc(C)c(C)c(S(=O)(=O)Nc2ccccc2C(=O)NN2CCOCC2)c1C | · | · | 0.7% | 2.0 | · | -6 | ·
O=C(Nc1cccc(C(=O)NC2CC2)c1)c1ccccc1 | · | · | 0.0% | 0.8 | · | -8 | -1.0%
C=CCn1c(SCC(=O)Nc2sc(C)c(C)c2C(=O)OCC)nnc1-c1sc(N)nc1C | -19 | 15% | -0.3% | -0.2 | -4.8 | -5 | 0.9%
O=C1C2(c3ccccc3)CN(CCO)CC1(c1ccccc1)CN(CCO)C2 | -6 | -2% | -0.5% | -0.4 | -0.8 | 8 | 2.0%
CCOC(=O)N1CCN(C(=O)c2ccc3c(c2)N(CC)CCS3)CC1 | -46 | 50µM* | 0.4% | 0.7 | 2.9 | -7 | -8.8%
COc1ccccc1Nc1ccc(N)cc1 | -3 | -15% | 9.6% | -0.9 | -2.0 | -8 | ·
CC(=O)Nc1ccc(NC(=O)C(C)OC(=O)/C(C#N)=C/c2ccc(N(C)C)cc2)cc1 (stereo not drawn) | -12 | · | -1.4% | 26 | · | 3 | -0.6%
CCNc1c(NC(=O)c2ccc3c(c2)OCO3)c(=O)oc2ccccc12 | 9 | 24% | -0.8% | -0.4 | -2.1 | 28 | -1.3%
Cc1ccc(NC(=O)CSc2nc3ccc(NC(=O)CCc4ccccc4)cc3s2)c(C)c1 | · | · | 3.1% | -0.5 | · | 7 | 0.1%
CCN(CC(=O)Nc1ccc(NC(C)=O)cc1)C(=O)c1sc2nc3n(c(=O)c2c1C)CCC3 | -15 | · | -0.8% | 0.5 | · | -14 | -4.4%
Cc1cccc(N(C)S(=O)(=O)c2ccc(-c3cnc(C4CC4)o3)cc2)c1 | -5 | -27% | -0.4% | 6.0 | · | -5 | -15%
CCOc1ccc(OCC)c(NC(=O)C2CCN(S(=O)(=O)c3ccc4c(c3)CC(C)N4C(C)=O)CC2)c1 (stereo not drawn) | 18 | 8% | -0.8%&2.1% | 1.0&-0.6 | · | -9&-23 | -3.9%&-2.1%
COc1ccc(CN2CCCN(CC(=O)Nc3cc(C)ccc3C)S2(=O)=O)cc1 | · | · | 0.6% | 0.0 | · | 16 | -0.3%
NC1=NC(=O)/C(=C\c2ccsc2)S1 | ? | 3% | -1.7% | -0.2 | 7.1 | 0 | -0.9%
c1ccc(NC2=NCCN2CCCC2CCCCC2)cc1 | 24 | · | 1.4% | 0.5 | · | -3 | -3.0%
O=C(Cc1ccc(Cl)cc1)NNC(=S)NC(=O)c1cccnc1 | 4 | -10% | 0.0% | 0.2 | ? | -15 | -1.4%
CSc1ccccc1NC(=O)CN(C)CC(=O)Nc1ccc(Cl)cc1[N+](=O)[O-] | -1 | -27% | 0.3% | -0.8 | 1.8 | -8 | ·
CC(C)C[C@@H](CN)NC(=O)c1nc[nH]c1C(=O)N[C@@H](Cc1c[nH]c2ccccc12)C(=O)CNC[C@H](C)NC(=O)c1nc[nH]c1C(=O)N[C@@H](CC(=O)O)C(=O)O | · | · | -0.2% | -0.1 | · | 2 | -1.5%

Carrying on.
SMILES | TRPV1 PAM | Sfp inh | PINK1 expr mod | TRPML1 ag | Menin-MLL FL inh | TRPML1 inh | ClpP mod
COc1cccc(CNC(=O)C2CCN(S(=O)(=O)c3cn(C)cn3)CC2)c1 | · | · | 1.4% | 1.4 | · | 4 | -2.7%
C[C@H](O)[C@@H]1C(=O)N2CCc3ccc(-c4cccc(F)c4)cc3[C@@H]2C[C@@H]1N(C)S(=O)(=O)c1ccccc1 | · | · | 0.0% | 3.3 | · | -5 | -2.9%
CN1C2C=C3C(C#N)=C(N)C(C#N)(C#N)[C@H](c4c(F)cccc4F)[C@H]3C1CC2 (stereo partly drawn) | -6 | 9% | 0.8%[38.3 µM] | 2.2 | ? | -8 | -24%
CC1=C/C(=C\c2ccc3c(c2)OCO3)C(=O)S1 | -3 | -25% | 1.8% | 1.1 | 3.5 | 7 | -0.4%
COc1ccc2[nH]c(=O)c(-c3nnn(-c4ccc(F)cc4)n3)cc2c1 | · | · | 0.1% | -0.9 | · | 4 | -11%
O=C1CSC(c2ccccc2F)N1c1cc(Cl)ccc1O (stereo not drawn) | 24 | 7% | 2.5% | 1.3 | -1.6 | -2 | 0.8%
Cc1cc(C(=O)N2CCC2(C)C(=O)O)nn1C(C)(C)C (stereo not drawn) | · | · | 0.5% | -0.5 | · | · | 0.1%
CNC(=O)COc1coc(CN2CCN(c3ccccc3)CC2)cc1=O | 15 | 24% | -1.4% | -0.5 | · | -12 | -0.9%
CCOC(=O)N1CCN(C(=O)c2cc3c(s2)-c2ccc(Cl)cc2S(=O)(=O)C3)CC1 | 4 | -15% | 1.3% | 0.2 | 1.1 | -25 | -2.6%
